From PubChem
MT1-MMP act inh: MT1-MMP (human) activation inhibition | GFP/RFP ratio change, % at 20 µM | HT1080 RFP-PRO-GFP cells, GFP/RFP ratio fluorescence, overnight; percent of plate control window, DMSO zero | 360,000 tested, 0.061% active | P50281;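 active = GFP/RFP ratio change of at least 30% with cell ATP level not reduced by more than half and red fluorescence within 50% of control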; note: strong numbers were not always called active
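Test system: HT1080 RFP-PRO-GFP cells; Benchmarks: DMSO and RFP-L50D-GFP cell wells; Timing: cells overnight before dosing, compound overnight, 37 °C, 5% CO2; Compound: one 20 µM compound dose with 1% DMSO; Read-out: GFP/RFP fluorescence ratio.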
PABP polyA inh: blocks human PABP binding to poly(A) RNA | P11940 | fluorescence polarization | inhibition, % at 35 µM | 290,000 tested, 1% active;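 active = 50% or more with normal probe brightness, or confirmed in later tests; inconclusive = above 50% with abnormal brightness, or retests that disagree; inactive = below 50% or failed in later tests; about a fifth of its hits are not listed in these tables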;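 note: calls also rest on retests at 20 µM and on dose response follow-up; controls were probe without protein and protein plus probe with vehicle; some compounds called inactive have numbers as strong as hits; many hits fall short of the cut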
Target sequence (P11940 whole entry, looked up): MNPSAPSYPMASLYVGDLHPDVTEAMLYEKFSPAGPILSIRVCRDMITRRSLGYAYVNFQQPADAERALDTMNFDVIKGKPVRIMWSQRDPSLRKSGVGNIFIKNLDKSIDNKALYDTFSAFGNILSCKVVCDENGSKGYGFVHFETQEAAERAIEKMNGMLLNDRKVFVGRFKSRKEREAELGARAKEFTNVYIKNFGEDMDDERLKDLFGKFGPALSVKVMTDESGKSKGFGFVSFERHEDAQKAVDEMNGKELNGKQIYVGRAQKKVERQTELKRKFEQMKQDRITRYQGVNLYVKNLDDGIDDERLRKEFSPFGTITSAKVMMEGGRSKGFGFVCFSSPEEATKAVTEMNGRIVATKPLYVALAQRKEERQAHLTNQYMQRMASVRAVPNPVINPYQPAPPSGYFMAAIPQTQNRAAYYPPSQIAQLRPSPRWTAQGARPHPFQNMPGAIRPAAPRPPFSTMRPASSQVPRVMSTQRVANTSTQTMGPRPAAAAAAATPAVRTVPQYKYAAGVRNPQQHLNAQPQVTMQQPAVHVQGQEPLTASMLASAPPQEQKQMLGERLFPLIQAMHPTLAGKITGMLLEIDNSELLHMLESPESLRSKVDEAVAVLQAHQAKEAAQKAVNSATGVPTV
HIV Env fusion: HIV envelope-mediated fusion inhibition | HeLa-JRFL Env/CEM21 cell fusion, luciferase | inhibition, % at 12.3 µM | 360,000 tested, 1.1% active;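 active = mean replicate inhibition score of at least 50 and every replicate individually at or above 50; inconclusive = only one of the two criteria met; inactive = mean below 50 and not all replicates reaching 50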;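 note: 0% = plate neutral controls and 100% = maraviroc near 300 nM; one replicate is shown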
UUG fidelity: alters start codon recognition fidelity in yeast; activity score, % at 18.7 µM; 350,000 tested, 0.13% active; S. cerevisiae UUG-firefly luciferase reporter, luminescence/redox ratio; AID 602363;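 active = replicate mean at a twofold rise or more, about +100% in these data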;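 note: firefly luciferase made from a UUG start codon reports start codon fidelity; reporter light over untreated wells divided by growth signal over untreated wells; some hits fall short of that in this replicate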
eIF4H FP inh: inhibitors of RNA binding by human eIF4H; Q15056; eIF4H fluorescence polarization binding assay; inhibition, % at 35 µM; 290,000 tested, 0.94% active;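 active = 50% or more with normal probe brightness, or confirmed in later tests; inconclusive = above 50% with abnormal brightness, or retests that disagree; inactive = below 50% or failed in later tests; about a fifth of its hits are not listed in these tables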;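 note: calls also rest on retests at 20 µM and on dose response follow-up; 0% = protein and probe with vehicle and 100% = probe without protein; strong numbers were not always called active; many hits fall short of the cut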
CSC inhib: cancer stem cell inhibition | cancer stem cell-like cells viability, luminescence | inhibition, % at 7.5 µM | 300,000 tested, 1.1% active;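 active = mean at 75% or more and at least half the replicates too; inconclusive = mean and replicates disagree; tested in HMLE shEcad cells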;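 note: 0% = median of negative and 100% = median of positive control wells; the first replicate is given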
Rce1 inh: yeast Ras-converting enzyme inhibition; Q03530; yeast membranes, quenched prenylated peptide cleavage fluorescence; calls only; 290,000 tested, 0.27% active; AID 2563;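 active = fall in fluorescence gain of 50% or more versus controls, with final raw signal at or below 3038400; inconclusive = same 50% fall but final raw signal above 3038400; inactive = fall in fluorescence gain under 50%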;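 note: plate controls were neutral control wells for no effect and wells lacking membranes for full effect; tested at 10 µM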
Target sequence (Q03530 whole entry, looked up): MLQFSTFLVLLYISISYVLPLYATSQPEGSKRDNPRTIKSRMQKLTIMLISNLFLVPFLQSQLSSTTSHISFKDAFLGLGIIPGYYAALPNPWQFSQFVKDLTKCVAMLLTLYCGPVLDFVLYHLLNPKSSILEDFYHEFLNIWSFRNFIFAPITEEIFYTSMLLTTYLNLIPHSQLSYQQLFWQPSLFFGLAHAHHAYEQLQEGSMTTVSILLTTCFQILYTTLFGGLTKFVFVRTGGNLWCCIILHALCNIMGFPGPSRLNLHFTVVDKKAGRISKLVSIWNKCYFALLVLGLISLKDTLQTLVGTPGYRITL
eIF4H FP inh retest: second read-out of eIF4H FP inh, no call of its own (marks repeat the call); inhibition, %; compound at 20 µM; confirmation average;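 mean of two retest wells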
PABP polyA inh retest: also measured in PABP polyA inh; calls as there; inhibition, %; compound at 20 µM; confirmation repeats;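 mean of two retest wells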
MT1-MMP act inh RFP: also measured in MT1-MMP act inh; calls as there; RFP signal change, %; measured here: RFP expression control read;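 0 = vehicle wells; hits needed this value within 50% of zero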
* hit, by the source's call; i = inactive; ? = inconclusive; nt = no result given. Random draw from the library; overall some 2.9% were active at least once.

SMILES	MT1-MMP act inh	MT1-MMP act inh RFP	PABP polyA inh	HIV Env fusion	UUG fidelity	eIF4H FP inh	CSC inhib	Rce1 inh	others
CCOc1ccccc1NC(=O)c1ccccc1-c1nc(-c2ccccc2OC)no1	0	-6	8	nt	-6	5	12	i
COCCCNc1nc2c(-c3ccc(Cl)cc3)nnn2c2ccccc12	1	4	2	3	-11	2	4	i
COc1ccc(S(=O)(=O)N2CCN(C(=S)NC3CCCCC3)CC2)cc1	1	4	0	-5	nt	9	-12	nt
CC(C)N(Cc1ccccc1)C(=O)CN1C(=O)COc2ccc(S(=O)(=O)N3CCCCCC3)cc21	0	-3	-5	22	-1	1	11	i
CCOC(=O)CC[C@H](NC(=O)Cn1cnc(C(=O)Nc2ccc(C)c(C)c2)n1)C(=O)OCC	1	0	nt	-65	6	nt	nt	nt
Cc1cccc(Cn2ccc(NC(=O)c3ccc4c(c3)OCO4)n2)c1	1	3	2	5	nt	0	8	i
COc1ccc([N+](=O)[O-])cc1NC(=O)CSCc1cc(C)cc(C)c1	1	-1	-12	-2	nt	-1	19	i
Cc1ccc2nc(-c3cccnc3SCC(=O)N3c4ccccc4CC3C)[nH]c2c1 (stereo unspecified)	3	-12	32	nt	nt	-16	nt	i
Cc1ccc(CNC(=O)COc2ccc(S(=O)(=O)N3CCOCC3)cc2)cc1	2	-3	nt	nt	nt	nt	-1	i
COc1ccc(CN2CCN(C(=O)Cn3c(=O)oc4cc(Cl)ccc43)CC2)c(OC)c1OC	-3	-16	3	-6	-3	4	-12	i
COc1ccc(N(C)C(=O)CCS(=O)(=O)c2cccc3nsnc23)cc1	-5	0	7	1	1	-5	-12	i
COc1ccc(CC(=O)N/N=C(\C)CC(=O)Nc2ccc(N(C)C)cc2)cc1	2	4	22	5	-3	4	5	i
COc1ccc(C(=O)N/C(=C\c2cn(S(=O)(=O)N(C)C)c3ccccc23)C(=O)N2CCN(C)CC2)cc1OC	1	0	nt	-29	14	nt	nt	nt
C#CCOCCOCCOCCNc1nc(N2CCN(C(=O)Cn3cc(CCCCN)nn3)CC2)nc(N2CCN(C(=O)[C@H](Cc3ccc(O)cc3)n3cc(CCO)nn3)CC2)n1	3	2	nt	-14	-2	nt	nt	nt
CCc1nnc(NC(=O)CCN2C(=O)c3ccccc3S2(=O)=O)s1	2	5	13	-41	-10	4	-8	i
CC1(C)C[C@H](O)[C@]2(CO)[C@H](O)C[C@]3(C)C(=CCC4[C@@]5(C)CC[C@H](O)C(C)(C)C5CC[C@]43C)[C@@H]2C1 (stereo partly specified)	-8	-14	nt	-1	-16	nt	?	nt
Cc1cc(NC(=O)Cc2cn3ccsc3n2)n(-c2ccccc2)n1	4	8	4	nt	nt	6	-14	i
CCc1ccccc1N(CC)C(=O)C1CCN(c2ncnc3c2nc2n3CCCCC2)CC1	9	-20	5	-14	4	-4	-14	i
CCCCN1C(=O)C(=O)N(CC(=O)Nc2ccccc2C(=O)OCC)C1=O	-2	-1	6	10	4	-1	6	i
CCCCNC(=O)NC1CCCC1	4	2	3	1	nt	4	-5	i
CCc1ccc(C(=O)N/N=C/c2ccncc2)s1	-3	1	2	-96	-17	-1	-13	i
CCCN(CCC)C(=O)c1cc(-c2ccc3c(c2)OCO3)nc2ccccc12	nt	nt	10	nt	-13	-4	-2	i
O=c1c(Cl)c(N2CCOCC2)cnn1-c1ncc(C(F)(F)F)cc1Cl	2	6	-3	6	nt	7	-2	i
C[n+]1cc(-c2ccccc2)oc1-c1ccccc1	-1	4	5	9	-23	-12	-10	i
CCN(CC)C(=O)C1CCCN(Cc2ccc3c(c2)OCO3)C1 (stereo unspecified)	7	4	12	nt	-17	6	-13	i

13 compounds already listed, ordered by SMILES length, ascending:
SMILES	MT1-MMP act inh	MT1-MMP act inh RFP	PABP polyA inh	HIV Env fusion	UUG fidelity	eIF4H FP inh	CSC inhib	Rce1 inh	others
CCCCNC(=O)NC1CCCC1	4	2	3	1	nt	4	-5	i
CCc1ccc(C(=O)N/N=C/c2ccncc2)s1	-3	1	2	-96	-17	-1	-13	i
C[n+]1cc(-c2ccccc2)oc1-c1ccccc1	-1	4	5	9	-23	-12	-10	i
CCN(CC)C(=O)C1CCCN(Cc2ccc3c(c2)OCO3)C1 (stereo unspecified)	7	4	12	nt	-17	6	-13	i
COCCCNc1nc2c(-c3ccc(Cl)cc3)nnn2c2ccccc12	1	4	2	3	-11	2	4	i
CCc1nnc(NC(=O)CCN2C(=O)c3ccccc3S2(=O)=O)s1	2	5	13	-41	-10	4	-8	i
COc1ccc(S(=O)(=O)N2CCN(C(=S)NC3CCCCC3)CC2)cc1	1	4	0	-5	nt	9	-12	nt
CCOc1ccccc1NC(=O)c1ccccc1-c1nc(-c2ccccc2OC)no1	0	-6	8	nt	-6	5	12	i
COc1ccc([N+](=O)[O-])cc1NC(=O)CSCc1cc(C)cc(C)c1	1	-1	-12	-2	nt	-1	19	i
Cc1ccc2nc(-c3cccnc3SCC(=O)N3c4ccccc4CC3C)[nH]c2c1 (stereo unspecified)	3	-12	32	nt	nt	-16	nt	i
CCc1ccccc1N(CC)C(=O)C1CCN(c2ncnc3c2nc2n3CCCCC2)CC1	9	-20	5	-14	4	-4	-14	i
COc1ccc(CN2CCN(C(=O)Cn3c(=O)oc4cc(Cl)ccc43)CC2)c(OC)c1OC	-3	-16	3	-6	-3	4	-12	i
CC1(C)C[C@H](O)[C@]2(CO)[C@H](O)C[C@]3(C)C(=CCC4[C@@]5(C)CC[C@H](O)C(C)(C)C5CC[C@]43C)[C@@H]2C1 (stereo partly specified)	-8	-14	nt	-1	-16	nt	?	nt

The list continues:
SMILES	MT1-MMP act inh	MT1-MMP act inh RFP	PABP polyA inh	HIV Env fusion	UUG fidelity	eIF4H FP inh	CSC inhib	Rce1 inh	others
O=C1c2cccc3cccc(c23)C(=O)N1CC1CCCO1 (stereo unspecified)	-5	1	-3	2	-12	-4	-2	i
Cc1ccc(NC(=O)CN2C(=O)/C(=C\c3cccs3)SC2=S)cc1	-1	2	7	1	nt	-7	-1	i
CCn1cc(C(=O)N[C@H](C(=O)NCCCO)C(C)C)c(=O)c2cc3c(cc21)OCO3	-2	-3	2	-3	-8	1	-2	i
O=C(CNC(=O)c1ccc(S(=O)(=O)N2CCCC2)cc1)N/N=C/c1ccccc1Cl	-2	-1	3	15	-2	-2	22	i
O=C(NCC1CCCO1)c1ccc2c(c1)ncn2-c1cccc(F)c1 (stereo unspecified)	3	0	-12	-8	7	-17	-9	i
COc1ccc(C(=O)C(OC(=O)c2ccc(C)c(NC(C)=O)c2)c2ccccc2)cc1 (stereo unspecified)	-1	0	-10	-60	-5	-6	-2	i
COC(=O)/C(=C/c1ccco1)NC(=O)c1ccco1	2	7	-3	16	nt	22	-4	i
CS(=O)(=O)N(Cc1ccccc1Cl)c1ccc(C(=O)NCc2cccnc2)cc1	3	-3	33	27	-13	6	-3	i
COc1ccc(C2c3c(ccc4ccccc34)Oc3ncn4nc(CO/N=C/c5ccccc5)nc4c32)cc1 (stereo unspecified)	1	-2	-2	-53	-14	-20	5	nt
CCc1cccc(CC)c1-n1c(-c2cccnc2)n[nH]c1=S	3	4	-9	5	nt	-7	-11	i
CCOc1ccc(C2C(C(=O)c3ccco3)=C(O)C(=O)N2CCCn2ccnc2)cc1OC (stereo unspecified)	-22	-6	nt	9	5	nt	-10	i
C/C(=N\NC(=O)CNc1cccc(C)c1)c1ccc(Br)s1	7	3	47	nt	-18	-4	-2	i
COc1cc(/C=C/C(=O)O)cc(S(=O)(=O)NCc2ccco2)c1OC	0	4	1	-6	nt	-1	-9	i
CC(=O)Nc1c2c(nn1-c1ccc(C)cc1)CS(=O)(=O)C2	-5	-7	-6	0	-13	-4	18	i
COc1ccc(CCNC(=O)c2c([S-])n(-c3ccc(C)cc3)c3cccc[n+]23)cc1	-4	-5	2	8	-18	-3	-3	i
NCCc1nnc(SCc2ccc(F)cc2)o1	0	6	4	-1	-10	-5	2	i
COc1cccc(CNC(=O)CC2C(=O)NCCN2CCCc2ccccc2)c1 (stereo unspecified)	-4	3	-5	8	-7	-4	-3	i
COc1ccc(C(O)CNc2ccc(C)cc2)cc1 (stereo unspecified)	3	12	-14	-24	-16	-7	4	i
S=c1[nH]cc(Cc2ccccc2)s1	nt	nt	-6	-20	-30	-5	2	i
O=C(NC(Cc1c[nH]c2ccccc12)C(=O)O)/C(=C/c1ccc(F)cc1)NC(=O)c1ccccc1 (stereo unspecified)	-5	6	7	20	-8	-1	-8	i
O=C(O)CC1(CC(=O)Nc2ccc3sccc3c2)CCCCC1	-2	2	-2	-9	-12	0	3	i
COc1ccc(NC(=O)c2coc(C)c2)cc1	-2	-2	56	-35	-13	16	nt	i	eIF4H FP inh retest=-4;PABP polyA inh retest=-1
Cc1ccc(C(=O)N/C(=C\c2cccs2)C(=O)NCc2ccncc2)cc1	-1	0	5	25	-25	-2	nt	i
O=C(c1ccccc1)N1CCN(C(=S)NCCc2ccccc2)CC1	-1	-1	2	9	-30	-9	4	i
OCCN1CCN(c2ncnc3scc(-c4ccc(F)cc4)c23)CC1	-10	-7	-9	10	-20	-7	-11	i

The list goes on, overlapping the part above by two compounds.
SMILES	MT1-MMP act inh	MT1-MMP act inh RFP	PABP polyA inh	HIV Env fusion	UUG fidelity	eIF4H FP inh	CSC inhib	Rce1 inh	others
O=C(c1ccccc1)N1CCN(C(=S)NCCc2ccccc2)CC1	-1	-1	2	9	-30	-9	4	i
OCCN1CCN(c2ncnc3scc(-c4ccc(F)cc4)c23)CC1	-10	-7	-9	10	-20	-7	-11	i
S=C(NCCc1ccccn1)Nc1ccc(Cl)c(Cl)c1	0	-4	-5	nt	nt	-1	12	i
O=C(O)c1ccc(N2CC3CC(C2)c2cccc(=O)n2C3)c(NC(=S)Nc2ccc(Cl)cc2Cl)c1 (stereo unspecified)	1	4	6	2	-13	8	11	i
O=C(COC(=O)c1c(Cl)cccc1Cl)NCC1CCCO1 (stereo unspecified)	-1	3	12	-5	-36	-5	20	i
O=C(COC(=O)c1cc(=O)[nH]c2ccccc12)c1cccs1	3	-3	-1	-1	nt	2	-13	i
Cc1cc(C)c(C)c(S(=O)(=O)Nc2ccc(O)cc2)c1C	3	-6	1	nt	-6	28	-7	i
COC(=O)c1cc(OC)c(OC)cc1NC(=O)c1ccccc1	6	2	-2	nt	-23	7	-12	i
NC(=O)[C@@H]1CCCN1C(=O)c1ccc2oc(CCc3ccccc3)nc2c1	1	5	0	0	-25	-4	-13	i
COc1ccc(Cc2nnc(NC(=O)c3cccc([N+](=O)[O-])c3)s2)cc1	3	4	7	1	-4	10	nt	i
CC1=C(n2ccnc2)CCC1=O	2	2	nt	2	-11	nt	1	i
c1ccc(CN2CCN(C(c3ccccc3)c3ccccc3)CC2)cc1	-3	-3	0	-6	-12	33	9	i
O=C1c2cccc(-c3ccc(C(F)(F)F)cc3)c2C2CCCCN12 (stereo unspecified)	0	-13	nt	0	-2	nt	nt	nt
CCOC(=O)c1ccccc1NC(=O)/C(C)=C/C(=O)O	3	-1	10	-44	-17	-6	-11	i
CCOC(=O)c1c(OCC)[nH]c2c1cc(O)c1ccccc12	15	4	109*	-40	-23	72*	23	i
COc1ccccc1NC(=O)NNC(=O)c1cc2ccccc2cc1O	-5	4	-2	nt	-10	-1	17	i
Cc1ccc(-c2nc(S(=O)(=O)c3ccccc3)c(SCC(=O)NCC3CCCO3)o2)cc1 (stereo unspecified)	-3	-8	9	6	-2	-5	-9	i
